HIV Env fusion: blocks HIV Env-driven cell-cell fusion; 360,000 compounds, 1.1% hits; inhibition, % at 12.3 µM; HeLa-JRFL Env/CEM21 cell fusion, luciferase;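 active = mean replicate inhibition score of at least 50 and every replicate individually at or above 50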;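 note: 0% = plate neutral controls and 100% = maraviroc near 300 nM; one replicate is shown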
UUG fidelity: alters start codon recognition fidelity in yeast | S. cerevisiae UUG-firefly luciferase reporter, luminescence/redox ratio | activity score, % at 18.7 µM | 350,000 compounds, 0.13% hits | AID 602363;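 active = replicate mean at a twofold rise or more, about +100% in these data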;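 note: firefly luciferase made from a UUG start codon reports start codon fidelity; reporter light over untreated wells divided by growth signal over untreated wells; some hits fall short of that in this replicate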
* hit, by the source's call; [ ] = remark or other dose. A portion of the library; the hit share may differ from the screen's.

Preview:
HIV Env fusion,UUG fidelity,SMILES
-50[16.7 µM],10,Cc1noc(C)c1S(=O)(=O)Nc1ccc2c(c1)C(=O)N([C@H](C)CO)C[C@@H](C)[C@@H](CN(C)Cc1ccc(C(=O)O)cc1)OCCCC[C@H](C)O2
7[16.7 µM],-11,CCC(=O)N1C[C@H](C)[C@@H](OC)CN(C)C(=O)c2cc(NS(=O)(=O)CC)ccc2OC[C@H]1C
-27[16.7 µM],25,C[C@@H]1CN([C@@H](C)CO)C(=O)c2cccc(NS(=O)(=O)c3ccccc3)c2O[C@H]1CN(C)CC1CCCCC1

The listing, repeating the preview:
HIV Env fusion,UUG fidelity,SMILES
-50[16.7 µM],10,Cc1noc(C)c1S(=O)(=O)Nc1ccc2c(c1)C(=O)N([C@H](C)CO)C[C@@H](C)[C@@H](CN(C)Cc1ccc(C(=O)O)cc1)OCCCC[C@H](C)O2
7[16.7 µM],-11,CCC(=O)N1C[C@H](C)[C@@H](OC)CN(C)C(=O)c2cc(NS(=O)(=O)CC)ccc2OC[C@H]1C
-27[16.7 µM],25,C[C@@H]1CN([C@@H](C)CO)C(=O)c2cccc(NS(=O)(=O)c3ccccc3)c2O[C@H]1CN(C)CC1CCCCC1
12[16.7 µM],-6,COc1cccc(-c2ccc3c(c2)O[C@@H](CN(C)C(=O)C2CCCCC2)[C@H](C)CN([C@@H](C)CO)S3(=O)=O)c1
-3[16.7 µM],-6,O=C(N[C@@H]1CC[C@@H](CC(=O)N2CCOCC2)O[C@@H]1CO)c1cccc(F)c1
-24[16.7 µM],-2,C[C@@H]1CN([C@@H](C)CO)S(=O)(=O)c2ccc(C#CCN(C)C)cc2O[C@H]1CN(C)Cc1cccnc1
5[16.7 µM],10,COc1ccc([Si](C)(C)[C@H]2[C@H](CCn3cc([C@H](O)c4ccccc4)nn3)O[C@@]3(C(=O)N(Cc4cccc(N5CCC5=O)c4)c4ccccc43)[C@@H]2C)cc1
3[16.7 µM],-10,C/C=C/c1cnc2c(c1)C(=O)N([C@H](C)CO)C[C@H](C)[C@H](CN(C)C(=O)Cc1cccnc1)O2
-151[16.7 µM],5,C[C@H](CO)N1C[C@H](C)[C@H](CN(C)C(=O)C2CCCCC2)OCCCC[C@H](C)Oc2ccc(NS(=O)(=O)c3ccccc3)cc2C1=O
17[16.7 µM],-3,O=C(N[C@H]1CC[C@H](CCNC(=O)C2CCOCC2)O[C@H]1CO)c1ccccn1
-71,-3,CC1CCC(NC(=O)CN2CCN(S(=O)(=O)c3ccc(Br)s3)CC2)CC1 (stereo unspecified)
-35[16.7 µM],-10,CC(C)NC(=O)N(C)C[C@@H]1Oc2cc(-c3cncnc3)ccc2S(=O)(=O)N([C@@H](C)CO)C[C@@H]1C
4[16.7 µM],9,O=C(NC1CCCCC1)N[C@@H]1CC[C@H](CCNS(=O)(=O)c2ccccc2)O[C@H]1CO
-13[16.7 µM],-18,C[C@@H]1CN([C@@H](C)CO)S(=O)(=O)c2ccc(-c3cccc(C#N)c3)cc2O[C@@H]1CN(C)Cc1ccccn1
-12[16.7 µM],-9,Cc1noc(C)c1NC(=O)N[C@@H]1C=C[C@@H](CC(=O)Nc2ccc(-c3ccccc3)cc2)O[C@@H]1CO
-89[16.7 µM],0,C[C@@H]1CN([C@H](C)CO)S(=O)(=O)c2ccc(C3=CCCC3)cc2O[C@H]1CN(C)C(=O)CN(C)C
-12[16.7 µM],16,COc1ccc(CN(C)C[C@H]2OCCCC[C@@H](C)Oc3ccc(NS(=O)(=O)c4ccc(OC)cc4)cc3C(=O)N([C@H](C)CO)C[C@@H]2C)cc1
9[16.7 µM],21,C[C@@H]1CCCCO[C@H](CN(C)C(=O)CCCN(C)C)[C@H](C)CN([C@H](C)CO)C(=O)c2cc(NC(=O)C3CCCCC3)ccc2O1
-6[16.7 µM],-6,C[C@@H]1CCCCO[C@H](CN(C)CC2CCCCC2)[C@H](C)CN([C@H](C)CO)C(=O)c2cc(NS(=O)(=O)c3cn(C)cn3)ccc2O1
10[16.7 µM],-6,CNC(=O)C[C@H]1CC[C@@H]2[C@H](COc3ccc(NC(=O)NC(C)C)cc3C(=O)N2C)O1
3[16.7 µM],-10,COc1ccccc1S(=O)(=O)N[C@@H]1C=C[C@@H](CC(=O)N2CCN(C)CC2)O[C@H]1CO
24[16.7 µM],-11,C[C@H]1CCCCO[C@H](CN(C)C(=O)Nc2ccc3c(c2)OCO3)[C@@H](C)CN([C@@H](C)CO)C(=O)c2cc(NC(=O)Nc3cccc4ccccc34)ccc2O1
-10[16.7 µM],2,C[C@H](O)C#Cc1cnc2c(c1)C(=O)N([C@@H](C)CO)C[C@H](C)[C@@H](CN(C)Cc1cccc(C(=O)O)c1)O2
8[16.7 µM],1,C[C@@H]1CN([C@H](C)CO)C(=O)c2cc(NS(=O)(=O)c3ccc(Cl)cc3)ccc2O[C@H]1CN(C)Cc1ccccc1
-10[16.7 µM],-13,O=C(C[C@@H]1C[C@H]2c3cc(NC(=O)C4CCOCC4)ccc3O[C@H]2[C@@H](CO)O1)NCc1ccncc1
-7[16.7 µM],42,C[C@@H]1CN([C@@H](C)CO)C(=O)c2cc(-c3cccc(F)c3)cnc2O[C@@H]1CN(C)C(=O)C1CCC1
-12[16.7 µM],-3,CCCNC(=O)C[C@H]1CC[C@@H]2[C@H](COc3ccc(NC(=O)CC)cc3C(=O)N2C)O1
1[16.7 µM],14,CC(C)CC#Cc1ccc2c(c1)O[C@H](CN(C)C(=O)C1CCC1)[C@@H](C)CN([C@H](C)CO)S2(=O)=O
-10[16.7 µM],4,C[C@H]1CN([C@@H](C)CO)C(=O)c2cc(-c3ccccc3F)cnc2O[C@@H]1CN(C)C(=O)c1ccccn1
-16[16.7 µM],-6,COc1ccc(NC(=O)N(C)C[C@@H]2Oc3c(NS(C)(=O)=O)cccc3C(=O)N([C@@H](C)CO)C[C@@H]2C)cc1
-21[16.7 µM],16,Cc1noc(C)c1S(=O)(=O)N(C)C[C@H]1OCCCC[C@@H](C)Oc2ccc(N(C)C)cc2C(=O)N([C@@H](C)CO)C[C@@H]1C
-6[16.7 µM],8,C[C@H]1CCCCO[C@@H](CN(C)C(=O)CCC(F)(F)F)[C@@H](C)CN([C@@H](C)CO)C(=O)c2cc(N(C)C)ccc2O1
-6[16.7 µM],5,COc1ccc(NC(=O)N(C)C[C@@H]2Oc3ncc(-c4cccc(F)c4)cc3C(=O)N([C@H](C)CO)C[C@@H]2C)cc1
-25[16.7 µM],-5,C[C@@H]1CCCCO[C@H](CN(C)C(=O)Nc2ccccc2)[C@H](C)CN([C@H](C)CO)C(=O)c2cc(NS(=O)(=O)c3cccs3)ccc2O1
15[16.7 µM],4,CC(C)NC(=O)N(C)C[C@H]1Oc2ccc(NS(C)(=O)=O)cc2C(=O)N([C@@H](C)CO)C[C@H]1C
-8[16.7 µM],-1,CCS(=O)(=O)NCC[C@H]1CC[C@H](NC(=O)Nc2ccccc2)[C@@H](CO)O1
-10[16.7 µM],0,CC(C)CC#Cc1ccc2c(c1)O[C@@H](CN(C)C(=O)NC1CCCC1)[C@H](C)CN([C@@H](C)CO)S2(=O)=O
1[16.7 µM],3,CC(C)NC(=O)N(C)C[C@@H]1Oc2cc(-c3ccccc3)ccc2S(=O)(=O)N([C@@H](C)CO)C[C@H]1C
4[16.7 µM],4,C[C@H]1CN([C@@H](C)CO)C(=O)c2cc(/C=C/c3ccccc3)cnc2O[C@H]1CN(C)Cc1cccc(C(=O)O)c1
11[16.7 µM],-13,COCC(=O)N(C)C[C@@H]1Oc2ncc(C#Cc3cccnc3)cc2C(=O)N([C@H](C)CO)C[C@@H]1C
11[16.7 µM],-1,Cc1noc(C)c1NC(=O)N(C)C[C@@H]1OCCCC[C@H](C)Oc2ccc(NC(=O)c3ccncc3)cc2C(=O)N([C@H](C)CO)C[C@@H]1C
-23[16.7 µM],10,C[C@@H]1CCCCO[C@@H](CN(C)C(=O)c2ccncc2)[C@H](C)CN([C@H](C)CO)C(=O)c2cc(NC(=O)NC3CCCCC3)ccc2O1
5[16.7 µM],3,COc1cc2c(cc1OC)CN(C(=O)[C@@H]1[C@H]3C(=O)O[C@H](c4ccccc4)[C@H](c4ccccc4)N3[C@H](c3ccc(OCCO)cc3)[C@@]13C(=O)Nc1ccc(C#CCNC(N)=O)cc13)CC2
14[16.7 µM],-5,CNC[C@@H]1Oc2c(NC(=O)C3CCOCC3)cccc2C(=O)N([C@H](C)CO)C[C@@H]1C
-5[16.7 µM],0,C[C@@H]1CCCCO[C@@H](CN(C)Cc2ccc(C(F)(F)F)cc2)[C@H](C)CN([C@@H](C)CO)C(=O)c2cc(N(C)C)ccc2O1
13[16.7 µM],-2,C[C@@H]1CCCCO[C@H](CN(C)S(=O)(=O)c2ccccc2)[C@@H](C)CN([C@H](C)CO)C(=O)c2cc(NC(=O)C3CCCCC3)ccc2O1
-7[16.7 µM],13,COc1cccc(S(=O)(=O)N[C@H]2CC[C@@H](CC(=O)NCc3ccc(Cl)cc3)O[C@H]2CO)c1
0[16.7 µM],5,CNC[C@@H]1Oc2ccc(NC(=O)CCN3CCOCC3)cc2CC(=O)N([C@@H](C)CO)C[C@H]1C

Single records (already shown):
Cc1noc(C)c1NC(=O)N(C)C[C@@H]1OCCCC[C@H](C)Oc2ccc(NC(=O)c3ccncc3)cc2C(=O)N([C@H](C)CO)C[C@@H]1C as listed: HIV Env fusion = 11[16.7 µM]; UUG fidelity = -1
C[C@@H]1CCCCO[C@@H](CN(C)Cc2ccc(C(F)(F)F)cc2)[C@H](C)CN([C@@H](C)CO)C(=O)c2cc(N(C)C)ccc2O1 as listed: HIV Env fusion = -5[16.7 µM]; UUG fidelity = 0

The results go on:
HIV Env fusion,UUG fidelity,SMILES
8[16.7 µM],4,C[C@@H]1CN([C@@H](C)CO)S(=O)(=O)c2ccc(-c3ccc(C(=O)N(C)C)cc3)cc2O[C@H]1CN(C)C
7[16.7 µM],6,C[C@H](CO)N1C[C@H](C)[C@@H](CN(C)C(=O)Nc2ccc(C(F)(F)F)cc2)Oc2ccc(NC(=O)C3CC3)cc2CC1=O
-1[16.7 µM],-1,CCC(=O)Nc1ccc2c(c1)C(=O)N(C)C[C@@H](OC)[C@@H](C)CN(C(C)=O)[C@H](C)CO2
1[16.7 µM],12,C[C@@H](O)C#Cc1cnc2c(c1)C(=O)N([C@@H](C)CO)C[C@H](C)[C@@H](CN(C)C(=O)CN1CCOCC1)O2
-9[16.7 µM],-11,C[C@@H]1CN([C@@H](C)CO)S(=O)(=O)c2ccc(-c3ccccc3F)cc2O[C@@H]1CN(C)Cc1cncnc1
-6[16.7 µM],-10,Cc1noc(C)c1S(=O)(=O)N(C)C[C@@H]1OCCCC[C@@H](C)Oc2ccc(NC(=O)Nc3ccc4c(c3)OCO4)cc2C(=O)N([C@H](C)CO)C[C@@H]1C
5[16.7 µM],-6,COc1cccc(NC(=O)N[C@H]2CC[C@H](CC(=O)NCc3ccncn3)O[C@@H]2CO)c1
-7[16.7 µM],-1,C[C@@H]1CN([C@@H](C)CO)C(=O)Cc2cc(NC(=O)CCN3CCOCC3)ccc2O[C@H]1CN(C)C(=O)Nc1ccc2c(c1)OCO2
10[16.7 µM],-9,O=C(C[C@H]1CC[C@@H](NS(=O)(=O)c2ccc(F)cc2)[C@@H](CO)O1)NCCc1ccncc1
11[16.7 µM],8,COCC#Cc1ccc2c(c1)O[C@@H](CN(C)C(=O)CC1CC1)[C@@H](C)CN([C@@H](C)CO)S2(=O)=O
-1[16.7 µM],-15,CC(C)NC(=O)N[C@H]1C=C[C@H](CC(=O)NCc2ccc(Oc3ccccc3)cc2)O[C@H]1CO
-5[16.7 µM],-2,CCC(=O)Nc1ccc2c(c1)OC[C@H](C)NC[C@@H](C)[C@H](OC)CN(C)C2=O
2[16.7 µM],5,COc1ccc(NC(=O)N(C)C[C@H]2Oc3ncc(C4=CCCC4)cc3C(=O)N([C@@H](C)CO)C[C@@H]2C)cc1
-51[16.7 µM],22,C[C@@H]1CN([C@H](C)CO)C(=O)c2cc(C3=CCCCC3)cnc2O[C@H]1CN(C)C(=O)Cc1cccnc1
5[16.7 µM],6,Cc1noc(C)c1NC(=O)Nc1ccc2c(c1)C(=O)N([C@H](C)CO)C[C@H](C)[C@H](CN(C)C(=O)Nc1ccc3c(c1)OCO3)O2
-6[16.7 µM],-3,C[C@@H]1CN([C@@H](C)CO)C(=O)c2cc(NS(=O)(=O)c3ccc(F)cc3)ccc2O[C@@H](C)CCCCO[C@H]1CN(C)C(=O)Nc1cccc2ccccc12
9[16.7 µM],-4,CN1C(=O)c2cc(NC(=O)c3ccc(F)c(F)c3)ccc2OC[C@@H]2O[C@@H](CC(=O)N3CCCCC3)CC[C@@H]21
10[16.7 µM],32,COCC#Cc1ccc2c(c1)O[C@@H](CN(C)C(=O)Nc1ccccc1F)[C@H](C)CN([C@@H](C)CO)S2(=O)=O
20[16.7 µM],-4,NCC[C@H]1CC[C@H](NS(=O)(=O)c2ccccc2F)[C@@H](CO)O1
-59[16.7 µM],20,Cc1noc(C)c1NC(=O)Nc1cccc2c1O[C@@H](CN(C)Cc1ccc(Cl)c(Cl)c1)[C@H](C)CN([C@H](C)CO)C2=O
78*[16.7 µM],20,C[C@H]1CCCCO[C@H](CN(C)C(=O)Nc2ccc(C(F)(F)F)cc2)[C@@H](C)CN([C@@H](C)CO)C(=O)c2cc(NS(=O)(=O)c3ccccc3)ccc2O1
-7[16.7 µM],-2,C[C@@H]1CN([C@H](C)CO)S(=O)(=O)c2ccc(C#CCN(C)C)cc2O[C@H]1CN(C)Cc1ccccn1

Source: PubChem
